# From PubChem
# Vaccinia mCherry – vaccinia inhibition (mCherry reporter); Vaccinia virus mCherry reporter infection, fluorescence; about a quarter of the inactives have no number; Potency, µM (doses to about 36.5 µM), inactives show at the highest dose activity change, negative = inhibition, actives largely listed as inhibitors; hit rate 0.63% among 310,000; active = well fitted inhibition curve with a large enough effect; inconclusive = small, poorly fitted or top-dose-only effect; inactive = no such curve, though single readings can be large or run the other way; tested in A549 cells; further: nearly all actives have a fitted effect of over 35% in size; inactives centre near -10
# VACV Venus inh – vaccinia inhibition (Venus reporter); Potency, µM (titrated, usually from 36.5 µM), for the others: at the highest dose activity change, negative = inhibition, actives largely listed as inhibitors; Vaccinia virus Venus reporter expression, fluorescence; AID 720580; hit rate 0.46% among 330,000; active means well fitted inhibition curve with a large enough effect; inconclusive means small, poorly fitted or top-dose-only effect; inactive means no such curve, though single readings can be large or run the other way; tested in A549 cells; further: nearly all actives have a fitted effect of over 30% in size; inactives centre near -10
# Active calls of the source: *; i = inactive; ? = inconclusive; . = no result given; [ ] = dose if it differs, or a comment. On the % scale 0 is the no-effect control and ±100 the full control effect; potency means the concentration at half of the fitted maximal effect.
# Order of results: Vaccinia mCherry | VACV Venus inh
CC(=O)c1ccc(NC(=O)C(C)OC(=O)c2ccc3c(c2)nc(C)n3-c2ccccc2)cc1 (centres undefined)
    -13.2% | 2.1%
CCOC(=O)/C(=C\C=C\N1CCOCC1)C(C)=O
    i | -0.1%
COc1ccc(NC(=O)COc2ccc(S(=O)(=O)N3CCOCC3)cc2C)cc1OC
    5.7% | -5.5%
OCCCNc1nc(-c2ccc(Cl)cc2)nnc1-c1ccc(Br)cc1
    -21.9% | ?
COc1ccc2c(c1)c(=O)c(C(=O)c1ccc(F)cc1)cn2CC(=O)Nc1ccc2c(c1)OCCO2
    -14.0% | -6.2%
O=C(NCC(=O)N(c1ccc(Cl)cc1)C(C(=O)NC1CCCC1)c1ccncc1)c1ccco1 (centres undefined)
    i | 8.9%
Cc1ccc(C(O)c2ncc(-c3ccc(Cl)cc3)[nH]2)cc1 (centres undefined)
    -8.7% | ?
CN(C)S(=O)(=O)c1ccc(Cl)c(C(=O)Nc2cccc3ncccc23)c1
    -6.6% | -16.9%
O=C(O)c1cc(O)c2c(c1)[C@@H]([C@H]1c3cc(C(=O)O)cc(O)c3C(=O)c3c(O[C@@H]4O[C@H](CO)[C@@H](O)[C@H](O)[C@H]4O)cccc31)c1cccc(O[C@@H]3O[C@H](CO)[C@@H](O)[C@H](O)[C@H]3O)c1C2=O
    ? | -10.5%
O=C(COC(=O)c1cccc(S(=O)(=O)N2CCOCC2)c1)NCc1ccccc1
    i | -9.2%
COc1ccccc1OCC(=O)NCC(c1ccc(Cl)cc1)N1CCCCC1 (centres undefined)
    -7.1% | -3.9%
COC(=O)c1cccc(CN2C(=O)C(C)Sc3cc(Cl)ccc32)c1 (centres undefined)
    i | -18.3%
O=C(O[C@@H](C(=O)O)[C@@H](OC(=O)c1ccccc1)C(=O)O)c1ccccc1
    i | -13.6%
CC(C)(C)NC(=O)c1ccc2nc(CCc3ccccc3)oc2c1
    -6.2% | -11.1%
COc1cccc(S(=O)(=O)N(C)C[C@@H]2OCc3cnnn3CCCC(=O)N([C@H](C)CO)C[C@@H]2C)c1
    -1.9% | -13.6%
CCc1cccc2c1NC(=O)C2=O
    ? | 12.9%
Cc1ccc2nc(-c3ccc(NC(=O)COC(=O)c4ccc(Br)o4)cc3)sc2c1
    -9.4% | -6.3%
N#Cc1cnn2ccc(-c3cc(N4CCOCC4)ccc3[N+](=O)[O-])nc12
    -15.2% | -27.1%
COc1cccc(NC(=O)C2C3CC4OC(=O)C2C4C3)c1 (centres undefined)
    . | -27.3%
O=C(NCC(O)CO)c1ccc2[nH]c3ccccc3c2c1 (centres undefined)
    i | -7.4%
COC(=O)c1cc(NC(=O)CC2SCCNC2=O)cc(C(=O)OC)c1 (centres undefined)
    . | -14.2%
Cc1ccc(NC(=S)N2CCCC2)cc1Cl
    -7.3% | -13.6%
CCn1nnc2sc3c(c2c1=O)CCC(C)C3 (centres undefined)
    -22.5% | -7.3%
CCOC(=O)N/N=C/c1ccc(OCCSc2ccc(Cl)cc2)c(OCC)c1
    -17.4% | -7.6%
Cc1ccc(S(=O)(=O)NC2=NCN(C)CN2)cc1[N+](=O)[O-]
    -22.7% | -9.5%
O=C(CSc1ncn[nH]1)NCc1ccc2c(c1)OCO2
    -14.9% | -4.7%
CCc1nn(C(C)C(=O)N2CCN(c3ccccc3)CC2)c(=O)c2cc3occc3n12 (centres undefined)
    -22.7% | -16.3%
O=S1(=O)CCN(C2CCCCCCCCCCC2)CC1
    ? | -26.7%
Cc1ccc(CS(=O)(=O)Cc2ccc(C(=O)NCc3ccco3)o2)cc1
    -15.4% | -5.8%
CS(=O)(=O)c1sc(C(=O)NC(=S)Nc2ccc(OC(F)(F)F)cc2)c2c1C=CCC2
    -15.2% | 0.0%
CCOC(=O)c1cc2c(OC)c(OC)ccc2c2[nH]cc(C#N)c(=O)c12
    i | -7.3%
CCN(Cc1nc2ccccc2c(=O)[nH]1)C(=O)c1cccc(NC(=O)c2cccs2)c1
    -0.7% | -10.5%
CN(CCCNC(=O)CSc1cc(=O)n(C)c2cc(Cl)ccc12)Cc1ccccc1
    -4.9% | -19.6%
O=C(CSc1cccc[n+]1[O-])NC1CCCCCCC1
    -19.3% | -8.7%
CCN(CCO)Cc1cc(=O)oc2cc3c(cc12)CCC3
    i | -7.9%
CCOc1cc(CNCc2ccccn2)ccc1OCC(=O)NC1CCCCC1
    -19.9% | -18.2%
CCn1c(COc2ccccc2OC)nnc1SCC(=O)NC1CCCC1
    -15.8% | -16.5%
O=C(Cc1ccc(F)cc1)NCCS(=O)(=O)N1CCN(c2cccc(Cl)c2)CC1
    -23.1% | -21.9%
O=C(CCl)Oc1ccc2occ(C(=O)c3cccs3)c2c1
    -1.6% | -10.8%
CC(C)CC1C(=O)N(Cc2cn(CCC3OCCCO3)nn2)CCS(=O)(=O)N1Cc1ccc(-c2ccc(Cl)c(Cl)c2)cc1 (centres undefined)
    -11.0% | ?
NC(=O)COC(=O)CSc1ccc2ccccc2c1
    i | -13.1%
CCCCCCCCC(=O)NCCOc1ccc(OC)cc1
    -9.2% | -6.4%
Cc1ccccc1C1CCCN(Cc2nc(C3CC3)no2)C1 (centres undefined)
    -24.1% | -12.7%
C1=NCCCN2CCCCC12 (centres undefined)
    -13.3% | -4.9%
Cc1ccc(-n2cc(CNCCN3CCOC3=O)c(-c3cccc(C)c3)n2)cc1
    -29.1% | ?
O=C(CSc1nc(C2CC2)nc2ccccc12)N1CCCCC1
    -28.8% | -13.7%
O=C(CCS(=O)(=O)Cc1ccccc1)NCc1ccco1
    -3.2% | -8.9%
C=CCOC(=O)C1=C(C)NC(SCC(=O)NC(=O)OCC)=C(C#N)C1c1cccnc1 (centres undefined)
    -19.6% | -1.1%
CN1OC[C@@H]2CN(C(=O)C(C)(C)C)[C@H](c3cccc(Br)c3)C[C@@H]21
    i | -12.7%
Cc1cnc2ccc(I)cc2c1/C=C/c1ccc(N(C)C)cc1
    -25.2% | -18.8%
COc1ccc(N2CC(C(=O)N3CCC(c4nc5ccccc5[nH]4)CC3)CC2=O)cc1 (centres undefined)
    -13.7% | -0.6%
O=C(CN1CCN(C(=O)c2ccco2)CC1)Nc1ccccc1
    -9.8% | -4.9%
COc1cccc(NC(=O)C2CC(=O)N=C(N)S2)c1 (centres undefined)
    -15.0% | -13.4%
O=C(CSc1ccc(F)cc1)Nc1ccccc1Br
    -13.5% | -1.2%
CCOc1ccc(N2CC(C)Cn3c2nc2c3c(=O)n(CC(=O)O)c(=O)n2C)cc1 (centres undefined)
    8.9% | -4.0%
COc1ccc(N(CC(=O)NCC(C)C)S(=O)(=O)c2ccccc2)cc1
    i | -8.1%
CC(C)c1ccc(NC(=O)C(C)N(c2ccccc2)S(C)(=O)=O)cc1 (centres undefined)
    -21.5% | -18.8%
CCCCCCNc1ccc(/C=C/c2ccnc3ccccc23)cc1
    -22.9% | -9.8%
O=C(Oc1cccc(N2C(=O)CCC2=O)c1)C1CC(=O)N(c2ccc(Br)cc2)C1 (centres undefined)
    -13.5% | -3.0%
COc1cc(C2NC(=S)NC(O)(C(F)(F)F)C2C(=O)c2cccs2)cc(OC)c1O (centres undefined)
    -11.7% | -5.4%

# By substructure: the entries above with two or more sulfur atoms
# Order of results: Vaccinia mCherry | VACV Venus inh
CS(=O)(=O)c1sc(C(=O)NC(=S)Nc2ccc(OC(F)(F)F)cc2)c2c1C=CCC2
    -15.2% | 0.0%
COc1cc(C2NC(=S)NC(O)(C(F)(F)F)C2C(=O)c2cccs2)cc(OC)c1O (centres undefined)
    -11.7% | -5.4%

# Later entries
# Order of results: Vaccinia mCherry | VACV Venus inh
CCc1ccc(Nc2cc(C)nc3nc(C)nn23)cc1
    -16.3% | -17.6%
CC(=O)Nc1ccc(S(=O)(=O)N(C)c2nc3ccccc3nc2Cl)cc1
    -14.4% | -14.5%
Cc1ccc(C(=O)/C=C/c2ccc(F)cc2)o1
    -19.5% | ?
CC1(C(=O)NCCc2ccccc2)Cc2c(-c3ccc4c(c3)OCO4)ccnc2O1 (centres undefined)
    15.7% | -22.1%
COc1ccc(C(=O)NCC2CCCN2S(=O)(=O)c2ccccc2)cc1OC (centres undefined)
    -1.2% | -2.5%
COc1ccc(CNC(=S)NCc2ccc(Cl)cc2)cc1OC
    -7.5% | -11.8%
CCOc1cc(C(=O)OCc2ccc([N+](=O)[O-])cc2)ccc1OCC(=O)N1CCOCC1
    -11.9% | -20.3%
Cc1cccc(N2CCN(C(=O)c3ccc(NC4=NC5CS(=O)(=O)CC5S4)cc3)CC2C)c1 (centres undefined)
    -1.8% | -7.4%
COc1ccc(C(CC(=O)N2CCCC2)c2ccc(F)cc2)cc1 (centres undefined)
    -18.2% | 11.7%
Cc1ccc(S(=O)(=O)N(NC2=NS(=O)(=O)c3ccccc32)C(=O)c2ccccc2)cc1
    -16.5% | -1.9%
Nc1c(C(=O)N/N=C/c2cccnc2)cnn1-c1ccccc1
    -8.4% | 19.3%
COc1cc(C(=O)OCC(C)=O)c([N+](=O)[O-])cc1OC
    -8.9% | -9.4%
COc1ccc(-c2cc(=Nc3ccc(C)cc3)c3ccccc3o2)cc1
    -5.6% | -9.4%
O=C(CNC(=O)c1ccco1)OC(C(=O)c1ccccc1)c1ccccc1 (centres undefined)
    . | -18.1%
CCOC(=O)c1ccccc1NC(=O)c1nn(-c2ccc(C)cc2)c(=O)n(C)c1=O
    -7.6% | -7.6%
CCCOc1ccc(Cn2c(O)cc(=O)[nH]c2=O)cc1
    -26.2% | -18.1%
Cc1[nH]c2ccccc2c1/C=C/c1c[nH]c2ccccc12
    22.6% | 8.4%
CC1OC(Nc2ccc(N=Nc3ccccc3)cc2)C(O)C(O)C1O (centres undefined)
    -19.9% | -14.6%
O=C1CC(c2ccccc2)Cc2nc3nc(C(F)(F)F)nn3cc21 (centres undefined)
    -2.1% | -9.8%
CCCCC(=O)NCc1ccc(F)cc1
    -15.4% | -15.8%
Cc1ccc(SCCN)cc1C
    -1.3% | -10.2%
O=c1nc2n(c3ccc([N+](=O)[O-])cc13)CCCCC2
    -8.1% | 3.7%
Fc1ccc(/C=N/NC(=S)Nc2ccc(Cl)cc2Cl)cc1
    ? | -28.4%
CC(C)(C)Nc1nc(SCC(=O)Nc2ccccc2)nc(N2CCOCC2)n1
    -11.8% | -19.2%
COC(=O)NC1(C(F)(F)F)NC(=O)N(C2CCCCC2)C1=O (centres undefined)
    . | -9.7%
COc1ccccc1N1CCN(CC(=O)NC(=O)NCc2ccco2)CC1
    i | -11.5%
CC(NC(=O)Cc1cccc(C(F)(F)F)c1)c1ccc(F)cc1 (centres undefined)
    -7.9% | -5.0%
Cc1ccc(-c2ocnc2C(=O)Nc2ccccc2C(=O)N2CCCC2)cc1
    18.1% | 3.0%
Fc1ccc(N2CCN(c3nc4ccccc4c4nc(-c5cccnc5)nn34)CC2)cc1
    -13.8% | -1.4%
COCCCNC(=O)c1c(NC(=O)c2cccs2)sc2c1CCCC2
    -28.7% | -25.3%
Nc1n[nH]c(=S)n1/N=C1/C(=O)Nc2ccccc21
    -2.8% | -0.5%
Oc1c(C(c2ccccc2)N2CCc3ccccc3C2)sc2ncnn12 (centres undefined)
    -1.8% | -0.2%
Cn1c(=O)c(/C=C/c2ccccc2)nc2ccccc21
    i | -16.5%
Cc1nnc2c3ccccc3nc(Nc3ccc(F)cc3Cl)n12
    -14.2% | -1.2%
CC(=O)N1CCN(c2nc3c(C)ccc(Cl)c3s2)CC1
    -18.0% | -5.9%
COC(c1ccccc1)c1nnc(CCC(=O)NCCC(C)C)o1 (centres undefined)
    -6.4% | 5.1%
Cc1ccc(NC2CCCN(C(=O)CN3C(=O)c4ccccc4C3=O)C2)cc1C (centres undefined)
    -13.1% | -11.3%
COc1ccc(C2NCCCC2c2ccccc2)cc1 (centres undefined)
    -3.0% | -10.9%
O=C(Nc1nnc(-c2ccncc2)s1)Nc1ccccc1F
    i | -2.7%
CC/C=C\C/C=C\C/C=C\C/C=C\C/C=C\CCCCCC(=O)O
    -13.5%[3.33 µM] | -6.3%[3.33 µM]
NC(=O)c1cccc(-c2ccnc3c2CC(C(=O)NCc2cccc(Cl)c2)O3)c1 (centres undefined)
    -7.3% | -24.3%
CC(=O)c1c(C)[nH]c(C(=O)OCc2cc(-c3ccco3)on2)c1C
    -0.2% | -0.7%
COc1cccc(N(CC(=O)N2CCC(C)CC2)S(=O)(=O)c2ccc(C)cc2)c1
    -7.0% | -9.9%
O=C(CCn1c(=O)c2sccc2n(Cc2ccc(F)cc2Cl)c1=O)NCc1ccc2c(c1)OCO2
    -14.1% | -7.8%
CSc1ccccc1OCc1cc(C(=O)N(C)Cc2nonc2C)no1
    -20.3% | -8.8%
O=C(CCCn1cnc([N+](=O)[O-])n1)Nc1cccc2ccccc12
    ? | -9.3%
Cn1nc2c(c1C(=O)O)CCCC2
    -3.1% | 0.9%
COc1ccc(S(=O)(=O)NCCc2csc(-c3cccnc3)n2)cc1
    -3.8% | 0.5%
COc1ccc(OC)c(S(=O)(=O)NCc2cccn2Cc2cccc(C)c2)c1
    -21.5% | -8.5%
Cc1ccc2nc(-c3ccc(NC(=S)NC(=O)C(C)C)cc3)sc2c1
    -1.5% | -12.3%
O=C(O)CSc1c(-c2ccccc2)[nH]c2ccccc12
    -6.6% | -4.3%
Cc1cc(C(=O)CN2C(=O)c3ccccc3S2(=O)=O)c(C)n1-c1ccccc1
    i | -7.9%
O=C(COc1ccc(C(F)(F)F)cc1[N+](=O)[O-])Nc1cccc(C(F)(F)F)c1
    -10.4% | -5.0%
